miR-21 reporter = qHTS Assay for Modulators of miRNAs and/orActivators of miR-21; HeLa miR-21 FLuc reporter, luciferase, 48 h; 340,000 tested, under 10 active; Potency, µM (doses to about 38.3 µM), without a hit: at the top dose reporter change, positive = more light; AID 2288, 2010; active = well fitted rising curve with a large enough effect; inconclusive = small, poorly fitted or top-dose-only effect; inactive = no such curve, though single readings can be large or run the other way;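 note: % of control where 0% means no effect; miR-21 action dims this reporter so a rising signal means less miR-21 action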
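HeLa miR-21-FLuc reporter line, endogenous miR-21; 2000 cells/well in DMEM/10% FBS; compound titration up to ~40uM final, 48 h, 37 degree Celsius; luciferase detection reagent, 15 min lysis, CCD luminescence.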
Rango complex inh = qHTS Assay for Inhibitors of Rango (Ran-regulated importin-beta cargo) - Importin beta complex formation | Importin subunit beta-1 (Homo sapiens), Q14974 | Rango CFP/YFP FRET sensor + importin beta, 45 min | Potency, µM (titrated, usually from 92.2 µM), for the others: at the highest dose inhibition of complex formation | hit rate 0.031% among 340,000; active = rising FRET ratio curve, often small or poorly fitted; inconclusive = mostly compound fluorescence or quenching in the first reads; inactive = flat curves in all reads;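 note: potency is the fitted concentration of half-maximal effect; 0% = DMSO wells and 100% = buffer wells lacking importin beta; nearly all actives have a fitted effect of over 15% in size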
Target sequence (Q14974 whole entry, looked up): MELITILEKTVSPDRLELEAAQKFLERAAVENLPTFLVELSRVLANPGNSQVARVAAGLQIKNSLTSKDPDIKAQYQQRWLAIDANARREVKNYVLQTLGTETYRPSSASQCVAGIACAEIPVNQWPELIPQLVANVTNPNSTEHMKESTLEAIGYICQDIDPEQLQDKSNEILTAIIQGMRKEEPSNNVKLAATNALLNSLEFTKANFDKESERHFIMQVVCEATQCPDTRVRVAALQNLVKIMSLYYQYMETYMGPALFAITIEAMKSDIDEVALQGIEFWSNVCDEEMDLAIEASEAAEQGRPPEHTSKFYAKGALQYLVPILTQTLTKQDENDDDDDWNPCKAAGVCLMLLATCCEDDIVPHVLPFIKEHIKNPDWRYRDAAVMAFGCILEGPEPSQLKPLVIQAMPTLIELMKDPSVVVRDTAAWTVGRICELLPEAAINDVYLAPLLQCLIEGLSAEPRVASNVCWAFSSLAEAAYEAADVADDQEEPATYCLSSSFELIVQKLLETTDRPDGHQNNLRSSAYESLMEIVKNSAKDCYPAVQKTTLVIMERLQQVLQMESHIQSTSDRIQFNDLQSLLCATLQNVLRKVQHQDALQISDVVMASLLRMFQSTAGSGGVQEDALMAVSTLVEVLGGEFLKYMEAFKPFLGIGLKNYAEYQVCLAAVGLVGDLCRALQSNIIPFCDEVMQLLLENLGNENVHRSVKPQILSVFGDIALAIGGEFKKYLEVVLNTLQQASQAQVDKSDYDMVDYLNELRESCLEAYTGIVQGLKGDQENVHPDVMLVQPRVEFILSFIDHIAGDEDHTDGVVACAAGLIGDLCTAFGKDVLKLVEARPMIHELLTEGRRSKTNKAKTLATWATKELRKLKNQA
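FRET biosensor Rango (snurportin 1 IBB between N-terminal EYFP and C-terminal Cerulean), 50 nM in PBS/1 mM DTT/0.02% Tween-20/0.1% BSA, preincubated 5 min RT with compound; 0.125 microM importin beta added, 45 min RT, CFP/YFP FRET ratio read.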
Rango dissoc inh = qHTS Assay for Inhibitors of RanGTP induced Rango (Ran-regulated importin-beta cargo) - Importin beta complex dissociation; Snurportin-1 (Homo sapiens) + GTP-binding nuclear protein Ran (Homo sapiens) + Importin …; Biochemical FRET Rango-importin beta, RanGTP-induced dissociation; Potency, µM (doses to about 46.1 µM), for inactives: top-dose activity change, negative = inhibition; hit rate 0.071% among 340,000; active means falling FRET ratio curve, often poorly fitted, with flat reads before Ran was added; inconclusive means other falling curves, or compound fluorescence or quenching; inactive means flat or rising ratio curve;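 note: potency is the fitted concentration of half-maximal effect; % of control where 0% means no effect; nearly all actives have a fitted effect of over 45% in size; -100% = wells without RanGTP and RCC1; the record marks most hits as doubtful in a second field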
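Two FRET readings bracket the reaction: one 5 min after compound meets Rango–importin beta, another 45 min after RanGTP-RCC1 (0.6 uM Ran, 0.2 uM RCC1, 2 mM GTP) is added. Only the second defines inhibition.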
GLA inh pH 4.5 = qHTS Assay for Inhibitors of Human alpha-Galactosidase at pH 4.5; purified enzyme, 4-MU-alpha-Gal fluorescence, pH 4.5; Alpha-galactosidase A (Homo sapiens), P06280; 230,000 tested, under 10 active; activity change, negative = inhibition, % at 105 µM; inconclusive = small, poorly fitted or top-dose-only inhibition, or a rising curve; inactive = flat fitted curve, though single readings scatter; no compound was filed as active;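 note: 0% = full activity with enzyme and -100% = basal without enzyme; dose as in the result columns while the protocol names 77 µM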
Active calls of the source: *.

Results for COc1ccc(NC(=O)C2CC(c3c(F)cccc3Cl)=NO2)cc1 (centres undefined) ?
miR-21 reporter: -30%; Rango complex inh: -2.4%; Rango dissoc inh: -26%

What do the screens show for `COc1ccc(C(C(=O)NC(C)(C)C)N(Cc2cccnc2)C(=O)CCC(=O)Nc2cc(C)on2)cc1` (centres undefined)?
miR-21 reporter: -2%; Rango complex inh: -7.3%; Rango dissoc inh: 3%

How did O=C(CNC(=O)c1ccccc1Cl)N/N=C/c1ccc2c(c1)OCO2 do in these assays?
miR-21 reporter: 6%; Rango complex inh: -1.1%; Rango dissoc inh: -5%

How did CCSc1nnc(NC(=O)C(C)(C)C)s1 do in these assays?
miR-21 reporter: -49%; Rango complex inh: 5.0%; Rango dissoc inh: -1%; GLA inh pH 4.5: 8

Results for O=C(NC(NC1CCS(=O)(=O)C1)C(Cl)(Cl)Cl)c1ccc(Br)cc1 (centres undefined) ?
miR-21 reporter: 17%; Rango complex inh: 3.0%; Rango dissoc inh: -6%; GLA inh pH 4.5: 14

What do the screens show for `Clc1cc(Cl)cc(CN2CCSCC2)c1`?
miR-21 reporter: 2%; Rango complex inh: -3.9%; Rango dissoc inh: -7%; GLA inh pH 4.5: -2

How did C=CCNC(=S)N(CC)c1cccc2ccccc12 do in these assays?
miR-21 reporter: -8%; Rango complex inh: -2.6%; Rango dissoc inh: 0%; GLA inh pH 4.5: 0

Results for CCCn1c(N)c(N(CCOC)C(=O)c2cc3c(s2)CCCCC3)c(=O)[nH]c1=O ?
miR-21 reporter: -2%; Rango complex inh: 3.0%; Rango dissoc inh: -15%

What do the screens show for `O=C(c1cccc(Cl)c1)N1CCn2c1nc1ccccc12`?
miR-21 reporter: -4%; Rango complex inh: -0.1%; Rango dissoc inh: -9%; GLA inh pH 4.5: 4

Results for CNC(=O)CSc1nnc(-c2ccc3c(c2)OCO3)n1C ?
miR-21 reporter: 0%; Rango complex inh: 1.8%; Rango dissoc inh: 6%; GLA inh pH 4.5: 5

What do the screens show for `CC1(C)Cc2c(c(N3CCCC3)[nH]c(=S)c2C#N)CO1`?
miR-21 reporter: 0%; GLA inh pH 4.5: 8

How did C=CCNC(=O)NC(=O)c1csc([N+](=O)[O-])c1 do in these assays?
miR-21 reporter: 2%; Rango complex inh: 3.7%; Rango dissoc inh: 17%; GLA inh pH 4.5: 2

How did CCCCN(C(=O)c1cccc(S(=O)(=O)N2CC(C)OC(C)C2)c1)c1c(N)n(CCCC)c(=O)[nH]c1=O (centres undefined) do in these assays?
miR-21 reporter: 0%; Rango complex inh: 3.6%; Rango dissoc inh: 4%

How did Cc1ccc(-c2nnn(CC(=O)NCCC3=CCCCC3)n2)cc1 do in these assays?
miR-21 reporter: -3%; Rango complex inh: -4.7%; Rango dissoc inh: -14%; GLA inh pH 4.5: 1

How did O=C(Nc1c2c(nc3c1CCC3)CCCC2)c1ccccn1 do in these assays?
miR-21 reporter: -9%; Rango complex inh: inconclusive; Rango dissoc inh: -7%; GLA inh pH 4.5: -7

What do the screens show for `COc1ccc(Cl)cc1NC(=O)c1cnc2sccn2c1=O`?
miR-21 reporter: -4%; Rango complex inh: -1.3%; Rango dissoc inh: 29%; GLA inh pH 4.5: 6

Results for O=C1CS(=O)CN1c1ccc(Oc2ccccc2)cc1 (centres undefined) ?
miR-21 reporter: -2%; Rango complex inh: 0.6%; Rango dissoc inh: 3%; GLA inh pH 4.5: 9

How did CC[C@@]12C(=O)N(c3cccc(F)c3)C(=O)N1[C@H](c1ccc(F)cc1)[C@@H]1C(=O)N(C3CCCCC3)C(=O)[C@@H]12 do in these assays?
miR-21 reporter: 0%; Rango complex inh: -4.5%; Rango dissoc inh: -7%

What do the screens show for `COc1ccc(C(=O)N2CCCC(CNC(=O)c3ccccc3Cl)C2)o1` (centres undefined)?
miR-21 reporter: -23%; Rango complex inh: inconclusive; Rango dissoc inh: inconclusive

Results for COc1cc2c(cc1OC)CN(CC(=O)Nc1ccc(Cl)c(S(=O)(=O)N(C)C)c1)CC2 ?
miR-21 reporter: 2%; GLA inh pH 4.5: 5

How did Cc1ccc(-c2nn(CC(=O)O)c(=O)c3ccccc23)cc1 do in these assays?
miR-21 reporter: -2%; Rango complex inh: -0.1%; Rango dissoc inh: -12%; GLA inh pH 4.5: 5

Results for Cc1c(C(C)(C)O)[nH]c2ccc(C(F)(F)F)cc12 ?
miR-21 reporter: 0%; Rango complex inh: 1.9%; Rango dissoc inh: 2%

What do the screens show for `CCCc1nnc(SCC(=O)N2CCCCC2)n1CC1CCCO1` (centres undefined)?
miR-21 reporter: -2%; Rango complex inh: -3.4%; Rango dissoc inh: 1%; GLA inh pH 4.5: 2

What do the screens show for `COc1ccc(CNC(=O)C2CC(c3ccc(F)cc3)=NO2)cc1` (centres undefined)?
miR-21 reporter: -4%; Rango complex inh: -0.6%; Rango dissoc inh: 1%; GLA inh pH 4.5: 5

Results for CSC1=NSC2=NC(=O)/C(=C/c3coc4ccc(O)cc4c3=O)C(=N)N12 ?
miR-21 reporter: -1%; Rango complex inh: inconclusive; Rango dissoc inh: inconclusive; GLA inh pH 4.5: -6

Results for CCCn1c2c(c(O)c(C(=O)Nc3ccc(OC)cc3)c1=O)CCCC2 ?
miR-21 reporter: -2%; Rango complex inh: 0.9%; Rango dissoc inh: 2%; GLA inh pH 4.5: 2

Results for Cc1sc(NC(=O)c2ccc(Br)s2)c(C(N)=O)c1C ?
miR-21 reporter: -43%; Rango complex inh: inconclusive; Rango dissoc inh: inconclusive; GLA inh pH 4.5: 1

What do the screens show for `COC(=O)C1=C[C@@H](C(=O)OC)[C@@H]2C3=C(C(=O)[C@@]2(C)NC(=O)c2ccccc2)[C@H](C)n2c(=O)n(C)c(=O)n2[C@@H]3C1`?
Rango complex inh: 1.7%; Rango dissoc inh: 2%

How did Cc1ccc2c(c1)C1CN(C)CCC1N2C(=S)NC(=O)c1ccc(Br)cc1 (centres undefined) do in these assays?
miR-21 reporter: -1%; Rango complex inh: 2.5%; Rango dissoc inh: -3%; GLA inh pH 4.5: -6

How did O=C(Nc1cccnc1)/C(N=Nc1cccnc1)=C(\O)c1ccccc1 do in these assays?
miR-21 reporter: -17%; Rango complex inh: -1.5%; Rango dissoc inh: 2%; GLA inh pH 4.5: -14

5 compounds drawn at random from the list so far:
What do the screens show for `COc1ccc(CNC(=O)C2CC(c3ccc(F)cc3)=NO2)cc1` (centres undefined)?
miR-21 reporter: -4%; Rango complex inh: -0.6%; Rango dissoc inh: 1%; GLA inh pH 4.5: 5

How did C=CCNC(=O)NC(=O)c1csc([N+](=O)[O-])c1 do in these assays?
miR-21 reporter: 2%; Rango complex inh: 3.7%; Rango dissoc inh: 17%; GLA inh pH 4.5: 2

Results for Cc1sc(NC(=O)c2ccc(Br)s2)c(C(N)=O)c1C ?
miR-21 reporter: -43%; Rango complex inh: inconclusive; Rango dissoc inh: inconclusive; GLA inh pH 4.5: 1

Results for COc1ccc(NC(=O)C2CC(c3c(F)cccc3Cl)=NO2)cc1 (centres undefined) ?
miR-21 reporter: -30%; Rango complex inh: -2.4%; Rango dissoc inh: -26%

How did O=C(Nc1cccnc1)/C(N=Nc1cccnc1)=C(\O)c1ccccc1 do in these assays?
miR-21 reporter: -17%; Rango complex inh: -1.5%; Rango dissoc inh: 2%; GLA inh pH 4.5: -14

Remaining list, next part:
How did CCc1cc(C(=O)Cc2nc3ccccc3s2)c(O)cc1OCC(=O)O do in these assays?
miR-21 reporter: -3%; Rango complex inh: inconclusive; Rango dissoc inh: inconclusive; GLA inh pH 4.5: -3

What do the screens show for `Cc1ccccc1NS(=O)(=O)c1cc(C(=O)Nc2cccnc2)ccc1C`?
miR-21 reporter: 7%; Rango complex inh: 0.2%; Rango dissoc inh: 5%

What do the screens show for `Cc1ccc(S(=O)(=O)N(C)CC(=O)OCc2nnc(-c3ccccc3)o2)cc1`?
miR-21 reporter: -1%; Rango complex inh: -5.3%; Rango dissoc inh: -7%; GLA inh pH 4.5: -19

Results for CCn1c(CCc2ccccc2)n[nH]c1=S ?
miR-21 reporter: 0%; Rango complex inh: -0.1%; Rango dissoc inh: 1%; GLA inh pH 4.5: -1

What do the screens show for `CCN(CCCNC(=O)CCNC(=O)Cn1ccc2ccccc2c1=O)c1ccccc1`?
miR-21 reporter: -1%; Rango complex inh: inconclusive; Rango dissoc inh: 5%; GLA inh pH 4.5: 1

Results for COc1cc(/C=C2\SC(=O)NC2=O)ccc1OCc1ccc(Cl)nc1 ?
miR-21 reporter: -21%; Rango complex inh: 0.3%; Rango dissoc inh: 3%

What do the screens show for `CC(SCc1ccccc1)C(=O)N/N=C/c1cccs1` (centres undefined)?
miR-21 reporter: -8%; Rango complex inh: 0.1%; Rango dissoc inh: 7%; GLA inh pH 4.5: 1

How did CC(=O)Nc1ccc(NC(=S)Nc2ccc(F)cc2)cc1 do in these assays?
miR-21 reporter: 4%; Rango complex inh: 0.0%; Rango dissoc inh: 3%; GLA inh pH 4.5: -8

How did COC(=O)c1cc(CSc2nc3ccccc3[nH]2)oc1C do in these assays?
miR-21 reporter: -32%; Rango complex inh: 1.4%; Rango dissoc inh: -6%; GLA inh pH 4.5: 0

What do the screens show for `O=C(NCCc1ccccn1)C1CCN(S(=O)(=O)c2ccc(Cl)cc2)CC1`?
miR-21 reporter: -1%; Rango complex inh: -1.1%; Rango dissoc inh: -10%; GLA inh pH 4.5: 4

Results for CCn1c(SCC(=O)N=Nc2c(O)[nH]c3ccccc23)nc2ccccc21 ?
miR-21 reporter: 1%; Rango complex inh: -0.2%; Rango dissoc inh: 17%; GLA inh pH 4.5: -12

How did COc1ccc(C2CC2/C(C)=N/OC(=O)c2cccs2)cc1 (centres undefined) do in these assays?
miR-21 reporter: -14%; Rango complex inh: 0.0%; Rango dissoc inh: -14%; GLA inh pH 4.5: 1

Results for C[C@]12c3[nH]c4cc(-c5ccco5)ccc4c3CCN1C(=O)[C@@H](CC(=O)NCC13CC4CC(CC(C4)C1)C3)C[C@@H]2C(=O)N1CCOCC1 ?
Rango complex inh: -0.8%; Rango dissoc inh: 23%

Results for COc1cc2c(cc1OC)C(c1ccc(-c3ccccc3Cl)o1)=NCC2 ?
miR-21 reporter: 6%; Rango complex inh: inconclusive; Rango dissoc inh: -19%; GLA inh pH 4.5: 5

What do the screens show for `COc1ccc(CNC(=O)c2cc3c(s2)CS(=O)C3)cc1` (centres undefined)?
miR-21 reporter: -7%; Rango complex inh: -2.5%; Rango dissoc inh: -13%; GLA inh pH 4.5: 0

What do the screens show for `Cn1c2ccccc2c2ccc3c(c21)C(=O)C=CC3=O`?
Rango complex inh: -3.5%; Rango dissoc inh: -13%

What do the screens show for `CCOC(=O)C(=O)Nc1ccccc1C#N`?
miR-21 reporter: -3%; Rango complex inh: -0.6%; Rango dissoc inh: 5%; GLA inh pH 4.5: 3

What do the screens show for `CC(=O)Nc1ccc(NS(=O)(=O)C(F)(F)F)cc1`?
miR-21 reporter: -7%; Rango complex inh: 3.8%; Rango dissoc inh: -4%; GLA inh pH 4.5: -4

How did Cc1ccc(C(=O)Nc2ccc3c(c2)OCO3)cc1S(=O)(=O)N1CCOCC1 do in these assays?
miR-21 reporter: -29%; Rango complex inh: 2.1%; Rango dissoc inh: -3%

What do the screens show for `CCOC(=O)c1ccc(Nc2cc(C)nc3ncnn23)cc1`?
miR-21 reporter: -15%; Rango complex inh: 5.9%; Rango dissoc inh: 3%; GLA inh pH 4.5: 4

What do the screens show for `CCc1nn(CC(=O)NCCC(C)C)c(=O)c2cc3c(OC)cccc3n12`?
miR-21 reporter: 2%; Rango complex inh: 3.7%; Rango dissoc inh: 15%

These rows are one share of the data; count on the stated rates, not on these rows.
